# Six1-Eya2 blk: inhibitors of human Six1/Eya2 interaction; AlphaScreen GST-Six1/His-Eya2 binding, biochemical; active compounds read low; control for the full effect not named in the record; activity change, % (concentration not given with the values); actives 0.56% (n = 360,000); AID 651725; in the data active = activity change below about -65%; inconclusive = about -30% to -65%; inactive = above about -30%; further: on the % scale 0 is the no-effect control and ±100 the full control effect
#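 AlphaScreen with GST-Six1 and His-Eya2 (5X mix: 250 nM and 500 nM), glutathione donor and nickel acceptor beads; buffer 50 mM Tris pH 8.0, 300 mM NaCl, 1 mM TCEP; 1 h at 37 C in the dark.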
# TRPML1 ag: human mucolipin-1 channel agonism. TRPML1-expressing cells, Ca2+ dye fluorescence, FDSS; host cell line not named in the record; reference of the full effect not given here. activation, % (test concentration not listed). actives 0.12% (n = 410,000). AID 624414; in the data active = activation above about 50%; inconclusive = about 30% to 50%; inactive = below about 30%; further: 0% is about no effect; the text of the record puts the active cut at 80%
# Target sequence (Q9GZU1 whole entry, looked up): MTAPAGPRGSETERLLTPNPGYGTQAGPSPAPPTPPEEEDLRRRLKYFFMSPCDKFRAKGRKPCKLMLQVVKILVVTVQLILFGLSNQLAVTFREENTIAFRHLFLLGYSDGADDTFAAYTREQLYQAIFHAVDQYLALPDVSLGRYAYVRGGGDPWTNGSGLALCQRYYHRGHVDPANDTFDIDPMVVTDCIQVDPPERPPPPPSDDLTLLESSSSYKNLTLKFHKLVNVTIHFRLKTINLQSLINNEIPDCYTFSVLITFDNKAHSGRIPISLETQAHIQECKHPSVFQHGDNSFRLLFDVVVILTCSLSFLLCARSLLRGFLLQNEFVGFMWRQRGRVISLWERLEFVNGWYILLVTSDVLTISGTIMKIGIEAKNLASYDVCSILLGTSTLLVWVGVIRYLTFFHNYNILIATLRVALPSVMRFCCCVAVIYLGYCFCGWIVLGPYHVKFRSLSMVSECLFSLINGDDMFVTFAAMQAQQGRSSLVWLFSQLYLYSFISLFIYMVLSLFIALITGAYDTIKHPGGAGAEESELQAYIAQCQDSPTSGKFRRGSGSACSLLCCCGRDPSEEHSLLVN
#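 Cells: TRPML1-DL, 1X Tet inducer, ~16 h at 37 degrees C/5% CO2. Dye: ABD Ca8 no-wash + quencher, 45-90 min RT. Read: 10 s baseline, compound add, 110 s agonist phase; 54-4 EC80 (4uM final), 110 s antagonist phase.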
# D2 potentiator: potentiates the human D2 dopamine receptor allosterically | actives 0.23% (n = 360,000) | potentiation, % (concentration not given with the values) | DiscoveRx D2 beta-arrestin cells, luminescence, 90 min; 100% = 57 uM dopamine signal | AID 624464; active = potentiation of 50% or more; inconclusive = 30% to 50%; inactive = 30% or less;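 further: compound concentration not given in the record; tested on top of an EC20 dose of dopamine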
# Target sequence (P14416 whole entry, looked up): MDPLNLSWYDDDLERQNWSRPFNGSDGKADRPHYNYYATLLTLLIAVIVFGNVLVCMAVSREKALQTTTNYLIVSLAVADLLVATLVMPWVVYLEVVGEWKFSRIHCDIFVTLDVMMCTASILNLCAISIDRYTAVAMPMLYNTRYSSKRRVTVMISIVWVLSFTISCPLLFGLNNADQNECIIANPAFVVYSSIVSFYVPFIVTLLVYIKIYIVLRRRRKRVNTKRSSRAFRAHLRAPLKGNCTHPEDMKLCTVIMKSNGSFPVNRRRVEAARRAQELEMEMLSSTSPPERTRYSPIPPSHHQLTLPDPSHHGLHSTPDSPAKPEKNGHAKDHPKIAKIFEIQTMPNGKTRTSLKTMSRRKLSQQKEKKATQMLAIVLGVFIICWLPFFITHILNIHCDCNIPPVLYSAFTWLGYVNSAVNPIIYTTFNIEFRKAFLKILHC
#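 PathHunter beta-arrestin assay in DiscoveRx D2 cells. Compounds were added with an EC20 of dopamine (50 nM final) for 90 min at 37 deg C. Luminescence was read 1 h after detection reagent, with 57 uM dopamine as the EC100 control.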
# TRPML1 inh: human mucolipin-1 channel inhibition; TRPML1-inducible cells, Ca2+ dye fluorescence, FDSS; active compounds read low; inhibition of EC80 agonist-evoked calcium signal; activity change, negative = inhibition, % (concentration not given with the values); actives 0.02% (n = 390,000); in the data active means activity change below about -50%; inconclusive means about -30% to -50%; inactive means above about -30%;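 further: stimulus is agonist 54-4 at its EC80 concentration; on the % scale 0 is the no-effect control and ±100 the full control effect; the text of the record puts the active cut at -80%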
#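 Tet-induced TRPML1-DL cells loaded with Ca8 no-wash calcium dye were read kinetically on FDSS. Compound addition was followed by EC80 agonist 54-4 (4 uM final); inhibition was read over 110 s.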
# CtBP-E1A blk: inhibitors of CtBP/E1A interaction | AlphaScreen GST-E1A/His-CtBP binding, 1536-well; active compounds read low; control for the full effect not named in the record | actives 0.49% (n = 340,000) | activity change, % (no concentration beside the values); in the data active means activity change below about -65%; inconclusive means about -30% to -65%; inactive means above about -30%; further: on the % scale 0 is the no-effect control and ±100 the full control effect
#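 Steps: dispense buffer (Tris pH 8.0, NaCl 300 mM, TCEP 1 mM, BSA, Tween 20); add 5X protein mix (GST-E1A, His-CtBP, 125 nM each); pin 23 nL compound; 2 h at 37 °C, dark; add 5X beads (50 ug/mL); 1 h; read.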
# TRPV1 PAM: enhances activation of the human vanilloid receptor TRPV1. Q8NER1. TRPV1-expressing cells, Fluo-8 calcium influx, capsaicin EC20 potentiation; host cell line not named in the record; control for the full effect not named in the record. potentiation, % at 8.33 µM. actives 0.02% (n = 320,000); active means potentiation above 80%; inconclusive means 30% to 80%; inactive means below 30%; further: 0% is about no effect
#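 Fluo-8 calcium influx in TRPV1-expressing cells, kinetic read (ex 480/em 520 nm). Compound added and read 3 min for agonist activity, followed by capsaicin at EC20 final and 2 min further read for enhancement.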
# * marks the source's active call; other numbers are inactive results; ? = inconclusive; . = not tested or not shown; & = joins results of further samples.
SMILES,Six1-Eya2 blk,TRPML1 ag,D2 potentiator,TRPML1 inh,CtBP-E1A blk,TRPV1 PAM
COCCNC(=O)/C(C#N)=C/c1ccc(O)cc1,4,-0.5,-9,29,4,0
N#Cc1ccc(C(=O)Nc2cccc(NC(=O)c3ccco3)c2)c(F)c1,-2,-0.1,-2,13,1,3
CCOc1cccc(C(=O)Nc2ccc3oc(-c4cccnc4)nc3c2)c1,-10,4.0&-0.8,-2,5&4,-22,7
COc1ccc(C(=O)Nc2nnc(-c3ccccc3)o2)cc1OC,?,-0.4,-16,10,-19,3
Clc1cccc(CN2CCSCC2)c1Cl,10,-0.5,-10,-5,5,-5
CCS(=O)(=O)c1nc2ccccc2n1CC(=O)N1CCCCC1,14,0.8,7,0,4,20
O=C(CNS(=O)(=O)c1ccc(Br)cc1Cl)OCC(=O)c1ccc[nH]1,1,0.3,-24,-1,-8,12
CCOc1ccc2oc(-c3ccccc3)c(C(N)=O)c2c1,1,-1.5,-3,2,10,1
O=C(NC1CCCC1)c1cnc2n(c1=O)CCS2,5,-0.2,-14,-6,1,7
COc1ccccc1CN1CC(C(=O)N2CCCCCCC2)CCC1=O (centres undefined),-9,0.4,-15,9,-3,3
c1ccc(COC2CCCN(Cc3nc(-c4cccs4)no3)C2)nc1 (centres undefined),-1,1.0,-3,13,0,10
COc1c(Cl)cc(Cl)cc1/C=N/NC(=O)c1nnn(-c2nonc2N)c1CN1CCC(C)CC1,3,-0.7,-35,-1,6,6
Cc1ccc(CN2C(=O)CCC2C(=O)NCCCN2CCC(C)CC2)cc1 (centres undefined),5,0.0,-6,-1,13,5
Cc1cccc(C)c1NC(=O)C1(C)c2cccc[n+]2CC(=O)N1Cc1cccs1 (centres undefined),0,2.3,-6,6,-1,3
O=C(CCc1nnc2ccc(NCc3ccc(Cl)cc3)nn12)NC1CCCCC1,-5,0.6,-4,19,.,7
Cc1nn(Cc2ccc(Cl)cc2)c(C)c1NC(=O)/C=C/c1cnn(C)c1,-10,-0.2,1,-8,0,4
O=C(/C=C/NCc1cccnc1)c1ccc(Br)cc1,-7,11,-8,-7,0,.
CC(O)CN1CC(O)=C(c2nc3ccccc3s2)C1=N (centres undefined),2,-0.2,-1,-13,8,-7
Cn1c(=O)c2c(nc(CN3CCN(Cc4ccccc4)CC3)n2CCN2CCOCC2)n(C)c1=O,-1,-1.0,-10,-11,1,-6
O=C(Oc1cccnc1)c1cccc(Cl)c1,-2,0.6,1,18,0,-2
S=C(NCC1COc2ccccc2O1)Nc1ccc(Br)cc1 (centres undefined),0,1.9,-9,0,-10,-5
COc1cccc(-c2ncc3ccccc3c2COC(=O)CCC(=O)O)c1,-3,0.4,4,24,5,-7
O=C1CSC(=S)N1N=Cc1ccc2c(c1)OCO2,?,-0.2,1,-9,?,.
Cc1cc(OCCn2nc(C(=O)O)c3ccccc3c2=O)ccc1C(C)C,3,2.4,-8,27,-11,-44
CC(=O)Nc1ccc(S(=O)(=O)NC2(C(F)(F)F)C(=O)Nc3c2c(=O)[nH]c(=O)n3Cc2cccnc2)cc1 (centres undefined),-7,-0.6,-5,28,7,2
COC(=O)[C@@]1(Cc2ccccc2)[C@@H]2C(=CC(=O)[C@H]2CC(=O)C(=O)N(C)C)CN1C(=O)c1ccccc1,4,0.5,-6,12,4,15
CCCCCCOc1ccc(/C=N/NC(=O)C2CC2)cc1,9,-0.4,1,-5,5,6
CCc1cc(CNC(=O)CCc2nnc(Cc3cccc(C)c3)o2)on1,93,-0.3,7,2,-8,-2
CCCN(CC(=O)Nc1ccccc1OC)C(=O)Cc1ccc2c(c1)CCC2,-1,0.7,-2,-8,4,-19
CCOC(=O)N1CCN(CC(O)COc2ccc(C(C)C)c(C)c2)CC1 (centres undefined),0,1.6,-3,3,.,6
COC(=O)c1cc(O)cc(OC)c1Oc1cc(C)cc(O)c1C(=O)O,?,.,11,.,-6,-13
CC1CC(C)CN(CCOc2ccc(Br)cc2)C1 (centres undefined),-5,-0.9,-36,?,-12,-3
Cc1cc(N)n2ncc(-c3ccc(Cl)cc3)c2n1,25,-0.7,10,-17,0,4
O=C(Cn1cncn1)N1CCN(c2ccc(F)cc2)CC1,-1,-0.6,-4,18,4,1
O=C(Nc1ncc([N+](=O)[O-])s1)c1ccco1,0,-0.3,-8,8,11,-3
COCCN(C(=O)CSc1nc2ccc(OC)cc2[nH]1)c1c(N)n(Cc2ccccc2)c(=O)[nH]c1=O,2,0.0,-22,-4,12,4
COCCNC(=O)CCCCCNS(=O)(=O)c1ccc(C)cc1,2,-1.7,-4,-10,2,-1
COc1ccc(CN(Cc2cccn2C)S(=O)(=O)c2cccc(C(F)(F)F)c2)cc1,-16,2.6,4,7,0,6
CCOC(=O)c1c(NC(=O)NC(C)(C)C)sc2c1CCN(C)C2,2,0.3,-20,-14,10,2
CCOC(=O)C1=C(c2ccccc2)NC(=S)NC1C (centres undefined),-13,2.0,-7,3,-1,18
COc1ccc(NC(=O)CN2C(=O)COc3ccc(S(=O)(=O)N4CCOCC4)cc32)cc1,3,-0.5&-0.9,-7,30&17,0,6
CC(=O)c1ccc(NC(=O)C2CCCN2S(=O)(=O)c2ccc(F)cc2)cc1 (centres undefined),1,-0.1,-4,-9,-1,.
CCCCc1nnc(NC(=O)c2ccc(-n3cncn3)c([N+](=O)[O-])c2)s1,-5,1.5,4,0,7,0
CC(=O)Oc1ccc2oc(C)c(C(=O)N3CCOCC3)c2c1,4,-0.4,-6,-12,8,1
Cc1cc(C)c(C)c(S(=O)(=O)NCc2ccc(C(=O)N3CCN(C)CC3)cc2)c1C,7,0.4,-9,3,8,16
COc1ccc(OCc2nnc(SCC(=O)c3ccccc3)o2)cc1,5,3.5,-10,59,7,11
CC(C)NC(=O)C1CCN(c2ccc(S(=O)(=O)N3CCOCC3)cc2Cl)CC1,-24,0.8,2,52,-2,4
COc1ccc(-c2csc(NC(CO)c3nc4ccccc4n3Cc3ccc(C)cc3)n2)cc1 (centres undefined),0,0.5,-14,-9,?,.
O=C(CCN1CCOCC1)NNC(=S)NC(=O)c1ccc(Br)cc1,-4,-0.6,-16,-14,12,1
CCOCC(=O)N1CCN(c2cccc(Cl)c2)CC1,14,-0.9,-5,5,.,-10

# The results go on:
SMILES,Six1-Eya2 blk,TRPML1 ag,D2 potentiator,TRPML1 inh,CtBP-E1A blk,TRPV1 PAM
O=C(Nc1ccccc1)ON=C1CCCC1,2,-0.8,19,-9,2,?
Cc1cccc(C(=O)NC(=S)NNC(=O)c2cccs2)c1,-17,16,-26,12,-19,-27
CC1=Nc2cc(C(=O)O)ccc2Sc2c(C)ccc(C)c21,3,-0.4,-2,-1,-4,9
O=C(C1CCCO1)N1CCN(C(=S)Nc2cccc(F)c2)CC1 (centres undefined),7,-0.1,7,1,-1,-12
CCCCC(CC)C(=O)Nc1ccccc1C#N (centres undefined),3,-1.0,16,8,15,-3
COc1cccc(CC(=O)OCC(=O)NCc2ccc3c(c2)OCO3)c1,-21,-0.5,-10,-6,-23,.
CC(C)NC(=O)C1(C)CCN1C(=O)c1ccc2c(c1)OCO2 (centres undefined),3,-0.4,-2,.,7,.
CCN(C(=O)CN1C(=O)c2ccc([N+](=O)[O-])cc2C1=O)C1CCCCC1,-3,0.4,-1,-20,-18,-14
O=C(CCCOc1ccccc1)Nc1ncccn1,-1,0.9,0,17,5,-11
CC(=O)c1cccc(NC(=O)C(C)OC(=O)CCC2CCCCC2)c1 (centres undefined),7,0.3,-18,-13,12,-5

# Ordered by SMILES length (ascending): some entries from above
SMILES,Six1-Eya2 blk,TRPML1 ag,D2 potentiator,TRPML1 inh,CtBP-E1A blk,TRPV1 PAM
O=C(Nc1ccccc1)ON=C1CCCC1,2,-0.8,19,-9,2,?
CCOc1ccc2oc(-c3ccccc3)c(C(N)=O)c2c1,1,-1.5,-3,2,10,1
Cc1cccc(C(=O)NC(=S)NNC(=O)c2cccs2)c1,-17,16,-26,12,-19,-27
COc1c(Cl)cc(Cl)cc1/C=N/NC(=O)c1nnn(-c2nonc2N)c1CN1CCC(C)CC1,3,-0.7,-35,-1,6,6

# Next compounds.
SMILES,Six1-Eya2 blk,TRPML1 ag,D2 potentiator,TRPML1 inh,CtBP-E1A blk,TRPV1 PAM
Cc1ccc2[nH]c(=O)c(CN(Cc3cccs3)S(=O)(=O)c3ccc4c(c3)OCCO4)cc2c1,-16,1.2,-9,18,-17,-9
COc1ccc(C(=O)NC2CCCc3ccccc32)cc1S(=O)(=O)N1CCOCC1 (centres undefined),-16,-0.6,9,5,7,-3
O=C(COc1ccc([N+](=O)[O-])cc1)Nc1ccc(C(=O)NCc2cccnc2)cc1,2,0.6,-13,12,-5,.
CCc1ccc(OCC(=O)NNC(=O)c2cc(S(=O)(=O)N3CCOCC3)ccc2N2CCCC2)cc1,5,4.1,-2,0,-2,26
CCN(C[C@H]1N[C@@](Cc2ccccc2)(C(=O)OC)[C@H]2C(=O)N(C)C(=O)[C@@H]12)C(=O)Nc1ccc(Cl)cc1,5,-0.8,-8,24,5,.
Cc1cc(C(=O)Nc2sc(C)c(C)c2C#N)c(C)o1,2,-0.4,-5,15,2,-4
NC1=NC(=O)NC1(c1ccccc1)c1ccccc1,9,0.3,-9,3,0,.
CCOC(=O)C1=C(O)/C(=C\c2cc(C)n(-c3ccccc3F)c2C)N=C1C,-8,0.0,-15,10,-5,-9
NNc1nc(-c2ccccc2)nc2sc3c(c12)CCCC3,-22,-0.5,-5,47,-22,18

# Fetched one by one from the list above:
SMILES,Six1-Eya2 blk,TRPML1 ag,D2 potentiator,TRPML1 inh,CtBP-E1A blk,TRPV1 PAM
NNc1nc(-c2ccccc2)nc2sc3c(c12)CCCC3,-22,-0.5,-5,47,-22,18
Cc1cc(C(=O)Nc2sc(C)c(C)c2C#N)c(C)o1,2,-0.4,-5,15,2,-4
O=C(COc1ccc([N+](=O)[O-])cc1)Nc1ccc(C(=O)NCc2cccnc2)cc1,2,0.6,-13,12,-5,.
NC1=NC(=O)NC1(c1ccccc1)c1ccccc1,9,0.3,-9,3,0,.
CCN(C[C@H]1N[C@@](Cc2ccccc2)(C(=O)OC)[C@H]2C(=O)N(C)C(=O)[C@@H]12)C(=O)Nc1ccc(Cl)cc1,5,-0.8,-8,24,5,.

# Source: PubChem BioAssay (National Center for Advancing Translational Sciences (NCATS))
